High-throughput results deposited in PubChem by National Center for Advancing Translational Sciences (NCATS).
gsp antag = gsp mutant antagonism; gsp-mutant cells, cAMP HTRF, 30 min; control for the full effect not named in the record; Potency, µM (top dose mostly 76.9 µM), for inactives: top-dose activity change, negative = inhibition, hits mostly inhibitors; actives 0.4% (n = 340,000); active = falling curve of any shape with a large fitted effect; inconclusive = falling curve, mostly with a smaller effect; inactive = flat or rising curve; cell line not stated here;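 note: intracellular cAMP measured with PDE inhibitor Ro 20-1724 present during compound exposure; potency is the fitted concentration of half-maximal effect; % is set by controls: 0 for no effect and ±100 for the full control effect; nearly all actives have a fitted effect of over 65% in size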
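Cells, 2000/well, grown 16–24 h in DMEM 10% FBS with 0.5 mg/ml G418, then compounds plus […] (300 uM addition stock), 30 min at 37C. cAMP read by HTRF (cAMP-d2 and anti-cAMP antibody-K in lysis buffer) after 30 min RT.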
Sfp inh = inhibitors of Bacillus subtilis Sfp phosphopantetheinyl transferase; Q9F4F7; Biochemical Sfp PPTase activity, qHTS; Potency, µM, inactives show max response, negative = inhibition, most hits filed as inhibitors; actives 3.5% (n = 310,000); AID 1490; active = well fitted inhibition curve with a large enough effect; inconclusive = small, poorly fitted or top-dose-only effect, or another doubt; inactive = no such curve, though single readings can be large or run the other way;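 note: the enzyme is Sfp with the accession as filed and its product quenches rhodamine fluorescence; potency is the fitted concentration of half-maximal effect; 0% = enzyme reaction without inhibitor and -100% = no enzyme wells; top concentration of the series not given in the record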
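With Hepes-Na pH 7.6 buffer containing 10 mM MgCl2, Sfp (15 nM) modified BHQ-2-YbbR (12.5 uM) using rhodamine-CoA (5 uM). Two reads 30 minutes apart at 525/598 nm yielded each well's rate.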
CtBP-E1A blk = inhibitors of CtBP/E1A interaction; activity change, % (concentration not given with the values); actives 0.49% (n = 340,000); AlphaScreen GST-E1A/His-CtBP binding, 1536-well; hits give low values; control for the full effect not named in the record; in the data active means activity change below about -65%; inconclusive means about -30% to -65%; inactive means above about -30%; note: % is set by controls: 0 for no effect and ±100 for the full control effect
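Steps: dispense buffer (Tris pH 8.0, NaCl 300 mM, TCEP 1 mM, BSA, Tween 20); add 5X protein mix (GST-E1A, His-CtBP, 125 nM each); pin 23 nL compound; 2 h at 37 °C, dark; add 5X beads (50 ug/mL); 1 h; read.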
Menin-MLL FL inh = displaces fluorescein MLL peptide from human menin | Fluorescence polarization, fluorescein-MLL peptide displacement from menin | FP activity change, % at 61.4 µM | AID 1766 | 290,000 tested, under 10 active; inconclusive = falling polarisation curve, or a change in total fluorescence; inactive = total fluorescence flat and polarisation flat or rising; no compound was filed as active; the % refers to the polarisation; negative = inhibition;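 note: % of control where 0% means no effect; inhibitors lower the polarisation; unlabelled MLL peptide was the positive control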
ClpP mod = qHTS Assay for Activators of ClpP. purified B. subtilis ClpP, FRET peptide cleavage, 20 min. actives 1.9% (n = 340,000). Potency, µM (doses to about 57.5 µM), for the others: at the highest dose activity change, negative = active. ATP-dependent Clp protease proteolytic subunit (Bacillus subtilis (strain 168)), P80244; active = well fitted falling curve with a large enough effect; inconclusive = small, poorly fitted or top-dose-only effect; inactive = no such curve, though single readings can be large or run the other way; note: potency is the fitted concentration of half-maximal effect; the source files actives as falling curves though it sought activators and does not explain the sign; nearly all actives have a fitted effect of over 65% in size; many hits overshoot -100%
Target sequence (P80244 whole entry, looked up): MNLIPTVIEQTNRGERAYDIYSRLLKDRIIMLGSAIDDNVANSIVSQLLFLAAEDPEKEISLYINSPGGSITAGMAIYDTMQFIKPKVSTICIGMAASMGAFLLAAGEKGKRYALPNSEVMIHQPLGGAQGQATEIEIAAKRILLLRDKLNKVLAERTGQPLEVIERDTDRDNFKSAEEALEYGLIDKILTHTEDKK
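Purified B. subtilis ClpP, 10 microg/mL final in Tris/HCl pH8 with KCl, BSA, glycerol and Tween-20, cleaved an Abz/nitrotyrosine-quenched decapeptide. Fluorescence (ex 320, em 430) was read at 0 and 20 min at room temperature. Delta was normalized to 5.8 microM ADEP and DMSO/no-enzyme controls.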
gsp agonist = gsp mutant agonism. actives 0.13% (n = 340,000). Potency, µM (doses to about 76.9 µM), inactives show at the top dose activation (cAMP increase), hits mostly activators. AID 624287. gsp mutant cells, cAMP HTRF, 30 min; control for the full effect not named in the record; active = well fitted activation curve with a large enough effect; inconclusive = small, poorly fitted or top-dose-only effect, or another doubt; inactive = no such curve, though single readings can be large or run the other way; cell line not stated here;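 note: phosphodiesterase inhibitor Ro 20-1724 added with compounds to block cAMP breakdown; potency is the fitted concentration of half-maximal effect; nearly all actives have a fitted effect of over 60% in size; about a fifth of the inactives were tested at one dose only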
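Cells in DMEM/10% FBS with G418 were pretreated with compounds in DMSO plus […] (300 uM stock) for 30 min at 37C. cAMP was measured by HTRF (cAMP-d2 plus anti-cAMP antibody-K) after 30 min at room temperature.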
TRPV1 potentiator = enhances activation of the human vanilloid receptor TRPV1. Q8NER1. TRPV1-expressing cells, Fluo-8 calcium influx, capsaicin EC20 potentiation; host cell line not named in the record; control for the full effect not named in the record. potentiation, % at 8.33 µM. actives 0.02% (n = 320,000); active means potentiation above 80%; inconclusive means 30% to 80%; inactive means below 30%; note: 0% is about no effect
Target sequence (Q8NER1 whole entry, looked up): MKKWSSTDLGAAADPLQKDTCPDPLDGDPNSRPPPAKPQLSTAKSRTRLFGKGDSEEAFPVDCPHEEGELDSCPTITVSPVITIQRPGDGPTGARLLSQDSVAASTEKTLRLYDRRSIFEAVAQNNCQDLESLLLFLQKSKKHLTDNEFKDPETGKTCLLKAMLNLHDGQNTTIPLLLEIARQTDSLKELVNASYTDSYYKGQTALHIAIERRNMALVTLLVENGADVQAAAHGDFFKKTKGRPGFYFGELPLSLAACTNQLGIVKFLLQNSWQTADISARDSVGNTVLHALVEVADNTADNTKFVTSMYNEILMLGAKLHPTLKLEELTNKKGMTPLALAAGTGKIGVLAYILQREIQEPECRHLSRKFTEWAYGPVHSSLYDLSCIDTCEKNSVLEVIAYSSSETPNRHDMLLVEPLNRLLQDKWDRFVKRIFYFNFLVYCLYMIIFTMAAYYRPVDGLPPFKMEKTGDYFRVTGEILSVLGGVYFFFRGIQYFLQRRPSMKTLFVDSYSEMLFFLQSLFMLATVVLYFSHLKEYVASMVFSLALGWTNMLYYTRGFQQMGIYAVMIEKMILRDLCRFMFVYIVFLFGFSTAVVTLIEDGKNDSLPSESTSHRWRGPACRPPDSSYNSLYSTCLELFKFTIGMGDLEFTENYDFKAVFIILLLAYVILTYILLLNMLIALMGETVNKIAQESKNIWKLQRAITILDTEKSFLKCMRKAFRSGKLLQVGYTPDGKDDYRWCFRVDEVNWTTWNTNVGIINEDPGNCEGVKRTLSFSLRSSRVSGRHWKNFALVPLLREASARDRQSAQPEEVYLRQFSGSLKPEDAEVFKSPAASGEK
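Cells expressing TRPV1 were dye-loaded with Fluo-8 and read kinetically: 10 s baseline, 3 min after compound (agonist portion), then 2 min after EC20 capsaicin (allosteric enhancer portion). Calcium-bound dye fluorescence at 480/520 nm.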
The depositor's hits bear a star; ? = inconclusive; nt = not tested or not shown; & = joins results of further samples; [ ] = remark or other dose.

SMILES	gsp antag	Sfp inh	CtBP-E1A blk	Menin-MLL FL inh	ClpP mod	gsp agonist	TRPV1 potentiator
CC1CCCCN1C(=O)Cc1ccc(Cl)cc1 (stereo not given)	-35%	3%	4	1.4	-0.7%	-45%[inhibitor]	-9
COc1ccc(Br)cc1CNC(=O)CCC(=O)n1nc(C)c2ccccc21	-17%	-17%	-1	nt	2.0%	?	7
COc1ccc(C)cc1NC(=O)CCNS(=O)(=O)c1ccc2c(c1)CC(C)N2C(C)=O (stereo not given)	0%	9%	-2	1.1	-0.4%	?	9
O=C1NCCc2c1[nH]c1c(Cl)ccc(Cl)c21	22%	0%	0	1.2	-18%	-9%	22
CCCn1cc(S(=O)(=O)c2ccc(C)cc2)c(=O)c2cc(OC)c(OC)cc21	6%	9%	nt	nt	-21%&-20%	26%	2
COc1ccc(-n2cc(CNCC3CC(=O)N(C4CC4)C3)c(-c3ccccc3Cl)n2)cc1 (stereo not given)	-1%	-15%	2	4.8	nt	18%	0
Cc1cc(C)c(S(=O)(=O)Nc2c(C)n(C)n(-c3ccccc3)c2=O)cc1[N+](=O)[O-]	-2%	23%	7	0.1	1.0%	-9%	0
C=CCn1c(COc2ccc3c(c2)CCCC3)nnc1SCC(=O)Nc1cccc(SC)c1	-7%	11%	-11	0.6	-2.9%	3%	-13
CCOC(=O)N1CCC(NC(=O)CCc2c(C)nc3c(c(C)nn3C(C)(C)C)c2C)CC1	?	7%	2	-2.7	?	9%	nt
O=C(CSc1nnc(-c2ccccc2)o1)NC1CCS(=O)(=O)C1 (stereo not given)	11%	22%	5	-1.4	-1.0%	18%[15.4 µM]	10
CCOC(=O)C1CCN(c2nc3ccccc3nc2C(C#N)C(=O)NCCc2ccccc2)CC1 (stereo not given)	nt	13%	nt	?	nt	nt	-8
CCN(CC)S(=O)(=O)c1ccc(C)c(NC(=O)c2cc(C)oc2C)c1	0%	-11%	-6	4.9	nt	6%	?
CCOC(=O)c1c(C)[nH]c(C)c1C(=O)COC(=O)c1c(OC)cccc1OC	-4%	4%	nt	-9.5	-1.9%	-39%[inhibitor]	0
O=C(c1ccccc1F)N1CCN(Cc2nc3sc4c(c3c(=O)[nH]2)CCCC4)CC1	-21%	-13%	-5	-5.0	nt	9%[15.4 µM]	-2
Cc1ccc(C)c(OCc2nnc(SCC(=O)NC(=O)NCc3ccco3)o2)c1	-1%	15%	0	1.1	0.1%	-5%[15.4 µM]	3
Cc1c(NC(=O)c2cc(CC(C)C)on2)c(=O)n(-c2ccccc2)n1C	8%	6%	-3	1.9	-2.1%	?	2
C=CCN(C)CCCCCCOc1ccc(C(=O)c2ccc(Br)cc2)c(F)c1	nt	?	nt	-2.4	1.0%	nt	nt
Cc1ccc(CN(Cc2ccccn2)C(=O)Nc2c(F)cccc2F)cc1	-16%	12%	-7	1.0	-1.5%	-4%	-23
Cc1cc(Cl)ccc1OCCCC(=O)NCCCn1ccnc1	4%	13%	8	0.1	0.4%	-14%	-26
CC1CCN(S(=O)(=O)c2ccc(C(=O)N3CCN(c4ccccc4F)CC3)cc2)CC1	5%	19%	0	-4.5	nt	23%	-8
COc1cc(NC(=O)CN2C(=O)c3ccccc3C2=O)c(C(=O)O)cc1OC	8%	-21%	0	3.2	0.7%	1%	14
Nc1cc2c(cc1[N+](=O)[O-])-c1ccccc1C2=NO	5%	nt	0	nt	1.0%	-49%[inhibitor]	nt
Cc1ccc(N(C)C(=O)N2CCN(c3ccccn3)CC2)cc1	3%	25%	7	-1.2	4.7%	-14%	20
Oc1c(Br)cc(Cl)cc1C=Nc1ccc(N2CCOCC2)cc1	-2%	-5%	-1	?	nt	-14%[15.4 µM]	6
COc1ccc(NC(=O)CSc2nc3nc(C)cc(C)c3c(=O)[nH]2)cc1OC	21%	nt	-6	nt	-3.2%	-21%	nt
O=c1cc(COc2ccc(Cl)c(Cl)c2)nc2sccn12	-5%	14%	-13	-1.1	nt	9%[15.4 µM]	5
c1ccc(N=P(c2nc3ccccc3o2)(N2CCOCC2)N2CCOCC2)cc1	-7%	-5%	3	-1.0	-3.3%	28%	3
O=C(CSc1nc2scc(-c3ccccc3)c2c(=O)[nH]1)NCCc1ccccc1	-5%	17%	5	nt	0.6%	29%	6
N#Cc1ccccc1CSc1nc2ccsc2c(=O)n1Cc1ccccn1	11%	-5%	0	-0.9	0.6%	-2%[15.4 µM]	-2
COc1ccc(OCCCC(=O)OC(C)C(=O)Nc2ccc(C)cc2)cc1 (stereo not given)	-11%	nt	-10	nt	-3.8%	9%	-7
COc1ccc(-c2cc(C(=O)NCCN3CCOCC3)c3ccccc3n2)cc1OC	5%	5%	-11	nt	-4.2%	-9%	3
O=c1c2cc(-c3ccccc3)sc2nc2n1N=C(c1cccs1)CS2	0%	-14%	-3	?	nt	12%	-6
CC(C)C(NC(=O)OCc1ccccc1)C(=O)O (stereo not given)	7%	19%	0	0.0	1.6%	-21%	13
CC(C)C(=O)NCCc1nc2ccccc2n1CCOc1ccccc1	7%	16%	-9	0.1	-1.7%	-8%	-11
COc1ccccc1/C=C1\NC(=S)N(CC2CCCO2)C1=O (stereo not given)	-4%	7%	4	2.1	-1.3%	19%	8
COc1ccc(NC(=O)C2CCCN(S(=O)(=O)c3ccc(C)cc3)C2)cc1OC (stereo not given)	-25%	1%	-22	-0.6	0.3%	20%	-11
O=C(O)c1ccc(/C=N/NC(=O)c2ccc(NS(=O)(=O)c3cccs3)cc2)cc1	-8%	-23%	2	4.5	-0.4%	-35%[inhibitor]	13
CCCN(CCC)CCNC(=S)Nc1ccc2nc3n(c(=O)c2c1)CCCCC3	23%	11%	-11	1.3	nt	-2%[15.4 µM]	-3
O=C(CCC(=O)c1ccc(Br)cc1)Nc1cccnc1	13%	7%	12	1.7	1.9%	-7%	-3
Cc1ccc(S(=O)(=O)/N=C(\c2ccccc2)N(C)S(=O)(=O)c2ccccc2)cc1	1%	10%	-7	-1.0	0.8%	?	12
CN(C(=O)c1ccc(NC(=O)Cc2cccc(NC(=O)C3CCCN(C(=O)C4CCC4)C3)c2)cc1)C1CCCC1 (stereo not given)	-4%	nt	-23	nt	-6.8%	?	12
O=C(O)c1ccc(CS(=O)c2cccc(C(F)(F)F)c2)o1 (stereo not given)	10%	-7%	3	-0.4	3.7%	21%	-6
COc1ccc(CN2CCN(C(=O)c3ccccc3F)CC2)c(OC)c1OC	13%	nt	7	nt	nt	6%	nt
CN(C)C(=O)CCc1ccc2c3c([nH]c2c1)[C@]1(CCc2ccccc2)[C@@H](C(=O)N2CCCCC2)C[C@H](CC(=O)NCCC2=CCCCC2)C(=O)N1CC3	-10%	nt	6	nt	-2.8%	nt	nt
Cc1ccc[n+](-c2[nH]c(=O)sc2/C=N/N=C(\[O-])CCn2c3ccccc3c3ccccc32)c1	1%	?	-1	-8.6	-3.5%	-3%[15.4 µM]	0
CCN(CC)C(=O)COc1ccc(N(C)S(=O)(=O)c2ccc(NC(C)=O)cc2)cc1	2%	-8%	-7	-1.3	-0.1%	6%	1
COc1ccccc1OCC(=O)N/N=C1/C=C(C)CC1	16%	-29%	8	-3.3	-1.5%	-1%[15.4 µM]	11
O=C(COc1ccccc1)Nc1c2c(nn1-c1ccc(F)cc1)CS(=O)(=O)C2	9%	19%	-4	nt	1.3%	-4%[15.4 µM]	-35
Cn1c(=O)c2c(nc(N3CCCCCC3)n2CC(=O)c2ccc(Br)cc2)n(C)c1=O	-8%	17%	4	0.0	1.5%	10%	-3
O=C(CSc1ccc(-c2ccc3c(c2)OCO3)nn1)Nc1nccs1	11%	?	5	0.1	-0.3%	-5%[15.4 µM]	-15
OCCC1CN(C/C=C/c2ccco2)CCN1Cc1ccccc1 (stereo not given)	10%	-3%	-1	6.3	0.0%	5%[15.4 µM]	13
O=C1CN(S(=O)(=O)c2cc(C(=O)O)ccc2Cl)c2ccccc2N1	nt	4%	20	25	nt	3%[15.4 µM]	0
CCCOc1ccc(C(=O)NC(=S)Nc2nc3ccccc3s2)cc1	4%	-3%	16	5.7	2.8%	-59%[inhibitor]	11
CCCCc1cc(=O)oc2cc(OCc3nn[nH]n3)ccc12	-27%	-8%	1	-0.7	-0.2%	4%[15.4 µM]	-10
COc1ccc(N2C(=O)c3cccc4c(N(C)CCO)ccc(c34)C2=O)cc1	-5%	20%	nt	?	-1.7%	?	2
NNC1=N[C@H]2CS(=O)(=O)C[C@H]2S1	12%	0%	7	0.7	0.5%	3%	2
CCN(c1ccccc1)S(=O)(=O)c1cc(C(=O)Nc2ccccc2Cl)ccc1F	?	15%	16	4.9	-12%	-14%	-2
Cc1cccc2cc3c(NC(=O)C(C)(C)C)nn(CC(C)C)c3nc12	-20%	16%	80	1.5	nt	2%[15.4 µM]	-2
O=C(c1cccs1)n1nc(-c2ccc(Cl)cc2)nc1NCc1ccco1	2%	8%	8	-1.2	?	?	-7
O=C1NCCCC1C(=O)NCCNC(=O)C(F)(F)F (stereo not given)	-5%	0%	3	0.6	-1.5%	-13%	2
The list continues:
SMILES	gsp antag	Sfp inh	CtBP-E1A blk	Menin-MLL FL inh	ClpP mod	gsp agonist	TRPV1 potentiator
O=C(CN1CCCCCC1)Nc1ccccc1	5%	?	-21	-0.9	nt	0%	-17
CC12CCC3c4cc(CN5CCOCC5)c(O)cc4CCC3C1CCC2=O (stereo not given)	7%	nt	-2	nt	1.6%	29%[15.4 µM]	nt
COc1ccc(C(=O)CC(Nc2ccc([N+](=O)[O-])cc2)c2ccc(Cl)cc2)cc1 (stereo not given)	-11%	21%	-18	2.2	-2.5%	16%	-13
Cc1cc(N2CCN(C)CC2)nc2ccc(NC(=S)N3CCCCC3)cc12	0%	-21%	-11	-0.5	nt	14%[15.4 µM]	17
CCc1nnc(NC(=O)Cc2ccc(S(=O)(=O)N3CCCCC3)cc2)s1	13%	nt	-3	nt	-4.4%	3%	-13
